# miR-21 reporter – miR-21 reporter, rising signal | HeLa miR-21 FLuc reporter, luciferase, 48 h | Potency, µM (titrated, usually from 38.3 µM), without a hit: at the highest dose reporter change, positive = more light | 340,000 tested, under 10 active | AID 2288; active = well fitted rising curve with a large enough effect; inconclusive = small, poorly fitted or top-dose-only effect; inactive = no such curve, though single readings can be large or run the other way;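 also: % of control where 0% means no effect; miR-21 action dims this reporter so a rising signal means less miR-21 action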
#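 Luminescence from a firefly luciferase reporter carrying a miR-21 binding site downstream, stably expressed under a CMV promoter in HeLa cells that make miR-21 endogenously, reports miRNA modulation after 48 h compound exposure up to approximately 40uM final.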
# Rango complex inh – prevents formation of the Rango-importin beta complex; Rango CFP/YFP FRET sensor + importin beta, 45 min; Potency, µM (highest dose often 92.2 µM), inactives show at the highest dose inhibition of complex formation; hit rate 0.031% among 340,000; active = rising FRET ratio curve, often small or poorly fitted; inconclusive = mostly compound fluorescence or quenching in the first reads; inactive = flat curves in all reads;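 also: potency is read from the fitted curve at half-maximal effect; 0% = DMSO wells and 100% = buffer wells lacking importin beta; nearly all actives have a fitted effect of over 15% in size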
#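 FRET biosensor Rango (snurportin 1 IBB between N-terminal EYFP and C-terminal Cerulean), 50 nM in PBS/1 mM DTT/0.02% Tween-20/0.1% BSA, preincubated 5 min RT with compound; 0.125 microM importin beta added, 45 min RT, CFP/YFP FRET ratio read.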
# Rango dissoc inh – inhibition of RanGTP-driven Rango-importin beta dissociation; O95149+P62826; Biochemical FRET Rango-importin beta, RanGTP-induced dissociation; Potency, µM (series often up to 46.1 µM), for the others: at the highest dose activity change, negative = inhibition; hit rate 0.071% among 340,000; AID 540253; active means falling FRET ratio curve, often poorly fitted, with flat reads before Ran was added; inconclusive means other falling curves, or compound fluorescence or quenching; inactive means flat or rising ratio curve;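 also: potency is read from the fitted curve at half-maximal effect; % of control where 0% means no effect; nearly all actives have a fitted effect of over 45% in size; -100% = wells without RanGTP and RCC1; the record marks most hits as doubtful in a second field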
#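 Two FRET readings bracket the reaction: one 5 min after compound meets Rango–importin beta, another 45 min after RanGTP-RCC1 (0.6 uM Ran, 0.2 uM RCC1, 2 mM GTP) is added. Only the second defines inhibition.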
# GLA inh pH 4.5 – inhibitors of human alpha-galactosidase A at pH 4.5; P06280; purified enzyme, 4-MU-alpha-Gal fluorescence, pH 4.5; activity change, negative = inhibition, % at 105 µM; 230,000 tested, under 10 active; AID 1467; inconclusive = small, poorly fitted or top-dose-only inhibition, or a rising curve; inactive = flat fitted curve, though single readings scatter; no compound was filed as active;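 also: 0% = full activity with enzyme and -100% = basal without enzyme; dose as in the result columns while the protocol names 77 µM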
# Target sequence (P06280 whole entry, looked up): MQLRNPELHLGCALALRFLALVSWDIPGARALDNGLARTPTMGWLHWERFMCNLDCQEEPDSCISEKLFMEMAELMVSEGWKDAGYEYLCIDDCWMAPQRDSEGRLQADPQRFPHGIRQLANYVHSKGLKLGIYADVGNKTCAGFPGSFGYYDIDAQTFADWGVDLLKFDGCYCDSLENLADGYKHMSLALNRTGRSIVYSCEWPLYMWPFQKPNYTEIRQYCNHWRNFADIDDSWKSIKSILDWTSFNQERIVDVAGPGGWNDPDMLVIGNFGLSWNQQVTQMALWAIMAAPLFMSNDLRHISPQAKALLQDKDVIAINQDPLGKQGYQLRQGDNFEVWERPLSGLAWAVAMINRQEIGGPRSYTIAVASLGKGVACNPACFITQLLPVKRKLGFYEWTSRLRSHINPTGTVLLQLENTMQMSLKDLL
# * hit, by the source's call; ? = inconclusive; . = not tested or not shown; & = joins results of further samples.
SMILES,miR-21 reporter,Rango complex inh,Rango dissoc inh,GLA inh pH 4.5
C=CCOC(=O)C1=C(C)OC(N)=C(C#N)[C@@]12C(=O)N(CC(N)=O)c1ccccc12,-0.8%,?,-12.2%,4.2
O=[N+]([O-])c1ccccc1CNCCc1c[nH]c2ccccc12,-9.4%,?,0.6%,.
C[C@]12CCC3C(CCC4=C/C(=N/OCC(=O)NC(CCC(=O)O)C(=O)O)CC[C@@]43C)C1CCC2O (stereo not given in full),-18.2%,0.2%,11.4%,.
CCC/C=N/O,.,8.9%,-8.2%,.
O=C(C(=C1N(Cc2ccc(Cl)nc2)CCN1Cc1ccc(Cl)nc1)[N+](=O)[O-])C(Cl)Cl,3.8%,-1.6%,2.6%,.
NC(N)=N/N=C/c1ccc(N(c2ccccc2)c2ccccc2)cc1,?,?,?,.
CCN1CCN(S(=O)(=O)c2cnc(Cl)c(Br)c2)CC1,-0.6%,-0.9%,14.6%,9.1
O=P(N[C@@H](c1ccccc1)[C@@H]1C[C@H]1CO)(c1ccccc1)c1ccccc1,-4.4%,2.2%,8.7%,-9.3&1.8
CCOc1cc(C2C(C#N)=C(N)Oc3c2c(=O)oc2ccccc32)ccc1OC(=O)c1cccs1 (stereo not given),-8.7%,-1.7%,2.0%,-14.2
C[C@]12CCC3C(CC[C@H]4[C@H](O)[C@H](O)CC[C@]34C)C1CCC2=O (stereo not given in full),.,3.8%,-6.0%,.
O=C1C2CCCN2C(c2ccc(Cl)cc2)N1c1ccccn1 (stereo not given),-2.0%,-1.1%,4.7%,3.1
ClCCN(CCCl)c1ccc(-n2cnc3c(Cl)ncnc32)cc1,.,0.2%,-1.5%,.
COC(=O)C(Cc1ccc(N(CCCl)CCCl)cc1)N=Cc1ccccc1O (stereo not given),?,2.7%,1.4%,.
NNC(=O)CN1C(=O)CN=C(c2ccccc2)c2cc(Br)ccc21,-3.0%,0.5%,-3.1%,2.4
O=C(N/N=C/c1c(O)n(CCc2ccccc2)c(=O)[nH]c1=O)c1ccccc1O,-3.0%,?,-7.9%,-5.9
O=C1C2(Cl)C3(Cl)C4(Cl)C(Cl)(Cl)C5(Cl)C3(Cl)C1(Cl)C5(Cl)C24Cl (stereo not given),.,0.9%,0.4%,.
CC(C)(O)/C=C/C(=O)C(C)(O)C1C(O)CC2(C)C3CC=C4C(C=C(O)C(=O)C4(C)C)C3(C)C(=O)CC12C (stereo not given),.,2.8%,-3.1%,.
O=C(COc1ccccc1)N1CCN(CC(O)COc2ccccc2)CC1 (stereo not given),-11.5%,-3.4%,-7.6%,-4.1
Cc1cccn2c(=O)c3c(nc12)N1CCCCCC1C1(C3)C(=O)N(C)C(=O)N(C)C1=O (stereo not given),3.5%,-1.3%,-3.1%,6.1
O=c1[nH]c(=O)n(-c2ccc(Cl)cc2)c(O)c1C=Nc1ccc(S(=O)(=O)Nc2nccs2)cc1,-4.9%,-0.1%,-13.5%,11.1
O=P(C(Cl)Cl)(N1CCCCC1)N1CCCCC1,-0.1%,0.3%,-2.3%,6.2
Cc1ccc(-n2c(C)cc(/C=C3/C(=O)NC(=O)N(C)C3=O)c2C)cc1,-3.5%,?,-14.2%,-2.2
O=C(COc1ccccc1)c1cn(Cc2ccccc2)c2ccccc12,3.1%,-2.4%,4.2%,-1.9
CNC1(c2ccccc2Cl)CCCCC1=O (stereo not given),.,-1.5%,0.1%,-1.9
Cc1cc(OCC(=O)N2CCN(CC(=O)N3CCOCC3)CC2)c(C(C)C)cc1Cl,.,-1.3%,-28.9%,.
# Next part:
SMILES,miR-21 reporter,Rango complex inh,Rango dissoc inh,GLA inh pH 4.5
CCCCN1C(=O)NC(=O)/C(=C/c2cnc(SC)nc2)C1=O,-0.7%,-3.1%,22.9%,6.3
COC(=O)C1=C(c2cccc(OCc3ccccc3)c2)C[C@@H]2CC[C@H]1N2C(=O)NCc1cccc(C(F)(F)F)c1,.,4.2%,4.0%,.
COc1cc(C)c(-c2nc(CN3C[C@@H]4C[C@@H](C3)c3cccc(=O)n3C4)c(C)o2)cc1C,-3.3%,1.7%,1.2%,0.3
CCCCC(C)C(OC(=O)CC(CC(=O)O)C(=O)O)C(CC(C)CC(O)CCCCC(O)CC(O)C(C)N)OC(=O)CC(CC(=O)O)C(=O)O (stereo not given),-7.4%,-0.4%,2.7%,1.4
O=C(O)Cc1cnc[nH]1,.,3.8%,-0.4%,0.4
CC1CCc2c(sc3nc(CSc4n[nH]c(N)n4)[nH]c(=O)c23)C1 (stereo not given),-66.9%,5.2%,0.8%,-2.9
Brc1ccc2[nH]cc(C=NN3CCCCCC3)c2c1,.,-4.0%,4.1%,.
C1CNC2NCCNC2N1 (stereo not given),-2.6%,-2.7%,-10.1%,4.0
O=C(CNC1CCCCC1)N1CCC2(CC1)OCCO2,-1.8%,-0.7%,1.8%,-4.5
Cc1ncc(CNC(=O)N(CCCl)N=O)c(N)n1,.,-3.2%,2.7%,-6.6&-2.3
Cc1nn(Cc2ccccc2Cl)c(C)c1C(=O)OCC(=O)NC1CCS(=O)(=O)C1 (stereo not given),-0.1%,-0.1%,-11.1%,2.9
O=c1c2ccccc2nc(C[n+]2ccccc2)n1-c1cccc(C(F)(F)F)c1,1.4%,0.7%,0.3%,0.5
COc1ccc(-n2c(O)c(/C(C)=N/N3CCCCCC3)c(=O)[nH]c2=O)cc1,-1.4%,-4.2%,-7.8%,-6.3
Brc1ccccc1OCCCN1CCOCC1,-44.1%,0.2%,0.6%,0.0
CC(Cc1ccc(O)cc1)NCC(O)c1cc(O)cc(O)c1 (stereo not given),-12.1%,0.8%,-10.9%,-2.8&-5.5&2.3
COc1c2c(cc3c1OCO3)CC[N+](C)=C2,2.1%,0.7%,8.3%,-21.8&0.9&-0.2
O=[N+]([O-])c1ccc(N2CCCC2)c2ncccc12,-4.1%,1.7%,14.0%,-4.6
O=C1/C(=C\c2ccccc2)C2OCC=C3CN4CCC56c7ccccc7N1C5C2C3CC46 (stereo not given),-3.6%,0.7%,22.2%,-5.5
Oc1ccc(C2=CCNCC2)cc1O,.,1.2%,-0.4%,.
CC[C@H]1CN2CCC1C[C@H]2[C@H](O)c1ccnc2ccc(OC)cc12 (stereo not given in full),.,0.4%,18.0%,.
Cc1[nH]c2ccc(OC(F)(F)F)cc2c1CCNCc1cccc([N+](=O)[O-])c1,7.8%,1.7%,-1.6%,.
COc1cccc(NP(=O)(Oc2ccc(Cl)cc2)Oc2ccc(Cl)cc2)c1,20.3%,2.9%,1.3%,-1.5
Cc1ccc(-c2nc3ccccc3c(=O)n2-c2nccs2)cc1,-8.1%,-4.5%,0.8%,3.7
COC(=O)C1=C(c2ccc(Cl)c(C(F)(F)F)c2)C[C@@H]2CC[C@H]1N2C(=O)NCCNC(C)=O,.,-0.4%,5.7%,.
O=C1CN=C(c2cccs2)c2c(sc3c2CCCC3)N1,20.4%,0.2%,-1.7%,7.8
# The listing continues.
SMILES,miR-21 reporter,Rango complex inh,Rango dissoc inh,GLA inh pH 4.5
Cc1cc(OCC(=O)N[C@@H](Cc2ccccc2)C(=O)O)c2c3c(c(=O)oc2c1)CCCC3,0.2%,0.5%,10.7%,.
CCOC(=O)c1ccccc1C(=O)OCC,.,4.7%,-4.8%,.
CCC(=NCCO)c1c(O)n(-c2ccccc2)c(=O)[nH]c1=O,1.8%,0.8%,4.5%,2.9
O=C(O)c1c[nH]c2ccc(S(=O)(=O)N(CCCl)CCCl)cc12,2.4%,-1.8%,28.5%,-1.0
O=C1NC(=O)C(=Cc2cc3c(cc2[N+](=O)[O-])OCO3)C(=O)N1,-1.3%,?,?,-12.1
N#C/C(=C\c1ccc(O)cc1)C(=O)O,.,0.8%,1.7%,-24.7
CCn1c(C)c(C(=O)Nc2ccc(OC)cc2)c2cc(OC)ccc21,-29.6%,1.3%,-8.0%,.
COc1ccc(C(=O)Oc2cccc3cccnc23)cc1S(=O)(=O)N1CCOCC1,-1.1%,-3.1%,-17.0%,2.6
CCOC(=O)[C@@H]1[C@H]2COc3ccc(Br)cc3[C@H]2N2C(=O)N(c3cccc(C)c3)C(=O)[C@]12C,.,?,-20.4%,.
O=C(/C=C/c1ccc2c(c1)OCO2)c1c(O)n(CCC2=CCCCC2)c(=O)[nH]c1=O,-1.2%,0.3%,-6.6%,-7.4
O=C(Nc1ccccc1)c1c(O)[nH]c(=S)[nH]c1=O,.,0.0%,0.2%,.
CCCN1CCC[C@@H]2Cc3nc(N)ncc3C[C@H]21,.,0.5%,17.0%,3.5
Cc1nc2ccccc2c(=O)n1-c1ccc(Br)cc1[N+](=O)[O-],0.7%,0.5%,16.7%,6.2
COC(=O)C1=C(c2cc3ccccc3s2)C[C@@H]2CC[C@H]1N2C(=O)NCCCOC(C)C,.,-2.5%,-18.7%,.
Cc1ccsc1C(=O)C1CCCN(Cc2cnn(C)c2)C1 (stereo not given),-1.3%,0.4%,-17.1%,10.8
CCC(=NCc1ccc(F)cc1)c1c(O)n(C)c(=O)n(C)c1=O,14.4%,-6.8%,12.5%,-4.9
CC(C)(C)NC(=O)C1CC2CCCCC2CN1 (stereo not given),2.0%,-5.4%,7.8%,-10.0
Cc1c(Oc2cc(NN3CCCCC3)c([N+](=O)[O-])cc2[N+](=O)[O-])cccc1[N+](=O)[O-],-1.0%,5.3%,1.1%,.
COc1ccc(CCC(C)NCCc2ccccc2)cc1 (stereo not given),-6.7%,-1.0%,-5.4%,1.4
COc1cc(OC)c(OC)cc1/C=C(\C#N)C(=O)NCc1cccs1,-1.0%,?,?,.
CC/C(=N\Nc1ccccc1)c1c(O)n(-c2ccc(OC)cc2)c(=O)[nH]c1=O,8.2%,-0.2%,-1.3%,-10.3
CC(C)N1C(=O)NC(=O)C2(Cc3cc([N+](=O)[O-])ccc3N(C)C2c2ccccc2)C1=O (stereo not given),22.3%,-3.1%,19.0%,1.9
CCCc1[nH]nc2c1C1(C(=O)N(CC(N)=O)c3ccccc31)C(C(=O)OC)=C(N)O2 (stereo not given),1.2%,0.7%,0.6%,-6.0
COC(=O)C1=C(c2cccc(OC)c2OC)C[C@@H]2CC[C@H]1N2C(=O)N1CCC(O)CC1,.,-2.1%,-9.1%,.
CC(C)CCOC(=O)c1c(N)n(CC2CCCO2)c2nc3ccccc3nc12 (stereo not given),9.4%,?,?,?
# The list continues.
SMILES,miR-21 reporter,Rango complex inh,Rango dissoc inh,GLA inh pH 4.5
COc1ccc(CCC(=O)N2CCC3(CC2)OCCO3)cc1,-4.4%,1.6%,11.2%,-3.0
CC12CCCCC1=NC(c1ccc(Br)cc1)N2O (stereo not given),0.3%,2.0%,-4.8%,2.3
Cc1nc2ccccc2c(=O)n1-c1ccc(F)cc1,-10.5%,0.9%,15.0%,4.1
COc1ccccc1N1CCN(Cc2ccccc2F)CC1,0.9%,3.6%,0.6%,-11.1
Fc1cccc(F)c1CN1CCN(c2ccc(Cl)cc2)CC1,1.5%,0.4%,1.8%,.
Fc1ccccc1CCNCc1ccccc1,-17.7%,1.2%,-4.2%,-12.7
S=C1CN=C(c2ccccc2)c2cc(Cl)ccc2N1,16.3%,-0.9%,11.7%,-17.5
Clc1ccc(CNCCc2ccc3c(c2)OCO3)cc1,-11.5%,-1.1%,13.9%,.
Cc1cccc(N2C(=O)NC(=O)/C(=C/c3cc4c(cc3[N+](=O)[O-])OCO4)C2=O)c1,-2.4%,?,?,-7.7
COc1ccc(CC(C)NCCc2ccc(OC)c(OC)c2)cc1 (stereo not given),-2.6%,-2.7%,-2.2%,.
COP(=O)(OC)c1nc(-c2cccc3ccccc23)oc1N1CCCCC1,10.6%,?,-10.8%,?
O=c1[nH]c(=S)[nH]c(O)c1/C=C1/C=c2ccccc2=N1,6.3%,-2.6%,-10.8%,.
CC(C)CCn1c(N)c(C(=O)NCc2cccs2)c2nc3ccccc3nc21,21.5%,?,?,11.6
NC(=O)c1ccc(N=Cc2c(O)n(Cc3ccco3)c(=O)[nH]c2=O)cc1,2.3%,-3.0%,-18.1%,3.0
CC(Cc1ccccc1)NC(=O)CN1CCCC1=O (stereo not given),-8.0%,0.0%,12.8%,6.5

# High-throughput results (PubChem BioAssay)

# These rows are one share of the data; the hit share may differ from the screen's.
